# Source: PubChem (National Center for Advancing Translational Sciences (NCATS))
# ClpP mod: qHTS Assay for Activators of ClpP. Potency, µM (highest dose often 57.5 µM), inactives show top-dose activity change, negative = active. 340,000 compounds, 1.9% hits. ATP-dependent Clp protease proteolytic subunit (Bacillus subtilis (strain 168)), P80244. purified B. subtilis ClpP, FRET peptide cleavage, 20 min; active = well fitted falling curve with a large enough effect; inconclusive = small, poorly fitted or top-dose-only effect; inactive = no such curve, though single readings can be large or run the other way; further: potency means the concentration at half of the fitted maximal effect; the source files actives as falling curves though it sought activators and does not explain the sign; nearly all actives have a fitted effect of over 65% in size; many hits overshoot -100%
# Target sequence (P80244 whole entry, looked up): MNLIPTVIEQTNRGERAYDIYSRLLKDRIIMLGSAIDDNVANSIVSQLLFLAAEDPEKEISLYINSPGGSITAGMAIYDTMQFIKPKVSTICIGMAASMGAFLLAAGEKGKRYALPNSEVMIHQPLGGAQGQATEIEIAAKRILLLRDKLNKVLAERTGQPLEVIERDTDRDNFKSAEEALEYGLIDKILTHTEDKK
#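 Buffer: 100 mM Tris/HCl pH8, 100 mM KCl, 0.05% low protease BSA, 2.5% glycerol, 0.01% Tween-20. ClpP 10 microg/mL final; 20 min RT; delta FRET normalized to ADEP and DMSO controls.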
# Menin-MLL FL inh: inhibitors of human menin-MLL interaction, wild-type MLL peptide; Fluorescence polarization, fluorescein-MLL peptide displacement from menin; FP activity change, % at 61.4 µM; 290,000 tested, under 10 active; inconclusive = falling polarisation curve, or a change in total fluorescence; inactive = total fluorescence flat and polarisation flat or rising; no compound was filed as active; the % refers to the polarisation; negative = inhibition;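 further: % of control where 0% means no effect; inhibitors lower the polarisation; unlabelled MLL peptide was the positive control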
# gsp agonist: agonists of gsp mutant (McCune-Albright syndrome) | AID 624287 | Potency, µM (highest dose often 76.9 µM), for inactives: at the top dose activation (cAMP increase), actives largely listed as activators | gsp mutant cells, cAMP HTRF, 30 min; control for the full effect not named in the record | 340,000 compounds, 0.13% hits; active = well fitted activation curve with a large enough effect; inconclusive = small, poorly fitted or top-dose-only effect, or another doubt; inactive = no such curve, though single readings can be large or run the other way; cell line not stated here;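 further: phosphodiesterase inhibitor Ro 20-1724 added with compounds to block cAMP breakdown; potency means the concentration at half of the fitted maximal effect; nearly all actives have a fitted effect of over 60% in size; about a fifth of the inactives were tested at one dose only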
#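 Cells in DMEM/10% FBS with G418 were pretreated with compounds in DMSO plus […] (300 uM stock) for 30 min at 37C. cAMP was measured by HTRF (cAMP-d2 plus anti-cAMP antibody-K) after 30 min at room temperature.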
# Sfp PPTase inh: inhibitors of Bacillus subtilis Sfp phosphopantetheinyl transferase; AID 1490; 310,000 compounds, 3.5% hits; Biochemical Sfp PPTase activity, qHTS; Potency, µM, without a hit: max response, negative = inhibition, usual class: inhibitors; Q9F4F7; active means well fitted inhibition curve with a large enough effect; inconclusive means small, poorly fitted or top-dose-only effect, or another doubt; inactive means no such curve, though single readings can be large or run the other way;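 further: the enzyme is Sfp with the accession as filed and its product quenches rhodamine fluorescence; potency means the concentration at half of the fitted maximal effect; 0% = enzyme reaction without inhibitor and -100% = no enzyme wells; top concentration of the series not given in the record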
#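 Sfp 15 nM + cpd, 15 min RT; start w/ rhodamine-CoA 5 uM, BHQ-2-YbbR 12.5 uM (final); 50 mM Hepes pH 7.6, 10 mM MgCl2, 0.01% NP-40, 0.01% BSA; read 525/598 nm at 0 and 30 min.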
# D2 ag: human D2 receptor agonism in beta-arrestin assay. P14416. DiscoveRx PathHunter D2 beta-arrestin, luminescence, 90 min; 100% = 57 uM dopamine signal. activation, % (test concentration not listed). 360,000 compounds, 0.084% hits; in the data active = activation above about 40%; inconclusive = about 15% to 40%; inactive = below about 15%; further: compound concentration not given in the record; the text of the record calls up to 30% inactive
# Target sequence (P14416 whole entry, looked up): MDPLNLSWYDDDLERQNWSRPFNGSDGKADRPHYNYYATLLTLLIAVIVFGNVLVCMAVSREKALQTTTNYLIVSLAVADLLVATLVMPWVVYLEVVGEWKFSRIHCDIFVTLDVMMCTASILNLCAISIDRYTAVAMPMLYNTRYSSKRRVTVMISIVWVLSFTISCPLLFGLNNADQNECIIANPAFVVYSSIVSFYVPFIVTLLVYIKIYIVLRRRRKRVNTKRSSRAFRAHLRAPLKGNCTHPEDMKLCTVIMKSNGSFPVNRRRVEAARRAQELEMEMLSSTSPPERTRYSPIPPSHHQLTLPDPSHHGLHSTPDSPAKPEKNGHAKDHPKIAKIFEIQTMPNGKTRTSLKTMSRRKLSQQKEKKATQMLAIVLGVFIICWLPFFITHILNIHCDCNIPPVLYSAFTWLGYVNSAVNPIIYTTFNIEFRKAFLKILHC
#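 DiscoveRx PathHunter D2 beta-arrestin cells (2,100/well) attached overnight, then compound-stimulated 90 min at 37 C in HBSS/10 mM HEPES/0.1% Tween-20 buffer; beta-galactosidase complementation read by luminescence after 1 h at ambient temperature. Dopamine 57 uM final (EC100) as control.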
# PINK1 expr mod: changes PINK1 expression | PINK1 immunofluorescence, high-content cytometry, 24 h | Potency, µM (series often up to 76.6 µM), without a hit: at the top dose activation (PINK1 increase), most hits filed as activators | AID 624263 | 410,000 compounds, 0.2% hits; active = well fitted activation curve with a large enough effect; inconclusive = small, poorly fitted or top-dose-only effect; inactive = flat fitted curve, though single readings scatter; cell line not stated here;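 further: potency means the concentration at half of the fitted maximal effect; % of control where 0% means no effect; nearly all actives have a fitted effect of over 65% in size; a mitochondrial uncoupler was the plate control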
#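 A stable cell line was treated with compounds at 5 concentrations for 24 hours, with CCCP as control. PINK1 levels and mitochondrial localization were measured by immunofluorescence with mitochondrial, cell and nuclear markers after fixation, read by laser-scanning cytometry.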
# gsp antag: antagonists of gsp mutant (McCune-Albright syndrome) | gsp-mutant cells, cAMP HTRF, 30 min; control for the full effect not named in the record | Potency, µM (highest dose often 76.9 µM), without a hit: at the top dose activity change, negative = inhibition, usual class: inhibitors | 340,000 compounds, 0.4% hits | AID 624288; active = falling curve of any shape with a large fitted effect; inconclusive = falling curve, mostly with a smaller effect; inactive = flat or rising curve; cell line not stated here;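 further: intracellular cAMP measured with PDE inhibitor Ro 20-1724 present during compound exposure; potency means the concentration at half of the fitted maximal effect; on the % scale 0 is the no-effect control and ±100 the full control effect; nearly all actives have a fitted effect of over 65% in size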
#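 HTRF cAMP measurement after 30 min RT detection following 30 min, 37C compound treatment alongside […] (added as 300 uM solution) in G418-selected cells seeded at 2000/well and grown 16–24 h.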
# An asterisk follows results filed as active; ? = inconclusive; nt = no result given; & = joins results of further samples; [ ] = remark or other dose. An unsorted share of the library (roughly 5.1% active in at least one column).
structure	ClpP mod	Menin-MLL FL inh	gsp agonist	Sfp PPTase inh	D2 ag	PINK1 expr mod	gsp antag
O=C(NCCc1ccccc1)C1CCN(S(=O)(=O)c2cccs2)CC1	-1.5%	2.1	-3%	11%	-2.1	nt	3%
NC(=O)NN=C1CCN2CCCc3cccc1c32	-20%	nt	24%	nt	-7.8	0.5%	nt
O=C(Nc1nc(-c2cccc3ccccc23)cs1)c1ccc2c(c1)S(=O)(=O)c1ccccc1C2=O	nt	-1.1	4%[15.4 µM]	-6%	-1.8	2.1%	2%
CC(=C1C(=O)c2ccccc2C1=O)N1CCN(C/C=C/c2ccccc2)CC1	-4.0%	2.1	-8%	56µM*	-0.5	-1.6%	-3%
COc1cccc(NC(=O)Cn2c(=O)n(CCC(=O)NCc3ccco3)c(=O)c3ccccc32)c1	0.6%	-2.4	5%	14%	-15	-0.1%	-19%
Cc1ccc(/C=N/Nc2nnc(Cc3ccccc3)c(=O)[nH]2)o1	nt	0.1	-8%	0%	0.9	5.1%	0%
COc1ccc(CNC(=O)C(c2ccco2)N(C(=O)c2ccccn2)c2ccccc2)cc1 (stereo unspecified)	-0.7%	0.7	-73%[inhibitor]	20%	-12	5.7%	-12%
c1ccc(COc2ncnc3c2ncn3CCCNCc2cccs2)cc1	0.9%	nt	10%	nt	0.1	0.8%	nt
O=S(=O)(NC1CCCCCC1)c1ccc(Br)s1	1.3%	1.5	2%	-4%	-3.6	4.2%	24%
COc1ccc(NC(=O)N(CCCN(C)C)Cc2cc3cc(OC)ccc3[nH]c2=O)cc1	?	1.5	-33%[inhibitor]	4%	1.6	-3.9%	3%
Cn1c(N)c(C(=O)COC(=O)Cc2ccc(Br)cc2)c(=O)n(C)c1=O	-2.6%	nt	-8%[15.4 µM]	nt	0.2	0.9%	1%
COc1cc2c(c(O)c1OC)C(=O)C(OC)CCC2 (stereo unspecified)	28µM*	-1.0	1%	14%	-1.6	2.1%	3%
Cc1cccc2cc(CN(CC3CCCO3)C(=O)c3ccncc3)c(=O)[nH]c12 (stereo unspecified)	-11%	0.8	-26%	-2%	-2.3	-2.9%	7%
O=C(NC1CCCCCC1)C(=S)N1CCCC1	nt	-1.8	23%	15%	-2.5	0.5%	2%
Cc1c(C(=O)NCC2CCCO2)sc2nc(-c3ccccc3)cn12 (stereo unspecified)	-1.6%	4.6	-3%	-1%	4.1	0.6%	-3%
O=C(N1CCOCC1)N1CCN(S(=O)(=O)c2ccc(Cl)cc2)C1	nt	2.6	-5%	17%	-4.3	-1.8%	11%
CCCCc1c(O)nc2n(c1=O)CCS2	0.1%	-1.1	29%	6%	1.4	4.7%[38.3 µM]	-26%
COCCNC(=O)CCc1nnc(C2(c3ccc(Cl)cc3)CCC2)o1	-0.3%	3.2	-39%[inhibitor]	11%	4.9	-0.4%	4%
O=C1OC(=O)c2c(Br)c(Br)c(Br)c(Br)c21	1.0%	nt	nt	nt	-5.9	-0.6%	-4%
CCOC(=O)C1CCCN(c2c(NCCN(C)Cc3ccccc3)c(=O)c2=O)C1 (stereo unspecified)	-1.7%	1.2	?	14%	0.1	5.6%	4%
O=C(CN1CCCC1)Nc1ccc(F)c(Cl)c1	nt	-5.6	-18%	-10%	4.6	0.9%	0%
c1csc(-c2nc3ccccc3s2)c1	nt	0.4	?	35µM*	1.4	-1.0%	2%
COCCCNC(=O)c1cc2c(=O)n3cccc(C)c3nc2n(C(C)C)c1=N	44%	-2.5	22µM*	3%	-1.6	-2.9%	1%
CCCCCn1c(=O)c2ccccc2n2c(=S)[nH]nc12	7.6%	-1.5	-13%	56µM*	8.0	-1.1%	-21%
CCOC(=O)c1cc(-c2csc(COc3ccc(Cl)cc3)n2)on1	nt	-2.4	19%[15.4 µM]	13%	3.3	12%	4%
Cc1cc(C)c2c(c1)N[C@H](c1cccs1)[C@@H]1CCO[C@H]21	nt	2.3	?	14%	-5.0	0.8%	0%
O=C(Nc1ccccc1)c1ccc(=O)[nH]n1	nt	3.3	24%[15.4 µM]	12%	-1.6	-2.0%	2%
COc1ccc(C(=C(CC(=O)O)C(=O)OC(C)(C)C)c2cc(OC)c(OC)c(OC)c2)cc1OC	-0.6%	nt	-17%	nt	-1.2	-4.0%	-9%
CSCCC(NC(=O)c1ccco1)C(=O)N1CC=C(c2ccccc2)CC1 (stereo unspecified)	-1.1%	-0.1	-51%[inhibitor]	6%	-6.9	-2.3%	1%
Cc1ccc(NC(=O)C(CC(=O)O)C2CCCO2)c(C)c1 (stereo unspecified)	nt	-5.7	-3%	17%	-4.4	1.3%	7%
COc1cccc2c1c(NC(=O)Nc1ccc(F)cc1F)nn2C	nt	0.2	26%	0%	2.6	5.8%	2%
COc1ccc(C(=O)N/C(=C/c2cccs2)C(=O)NN)cc1OC	nt	0.4	-7%[15.4 µM]	7%	3.0	-1.5%	14%
CCOC(=O)C1CCCN(S(=O)(=O)c2cc(Br)cc3c2N(C(=O)C2CC2)CC3)C1 (stereo unspecified)	-0.7%	-1.0	3%	-5%	-5.0	0.2%	?
CCOc1ccc(NC(=O)CCC(=O)N2CCSc3ccccc32)cc1	1.5%&-2.6%	-0.7	-19%	-1%	0.1	1.5%&0.2%	-25%
CC(C)C1Nc2ccc(C(=O)NCc3ccco3)cc2NC1=O (stereo unspecified)	nt	-1.5	0%[15.4 µM]	-1%	2.0	1.4%	11%
O=C(NC1CCS(=O)(=O)C1)c1sc2ccccc2c1Cl (stereo unspecified)	nt	-6.8	-6%[15.4 µM]	9%	2.0	0.0%	-12%
CN(CC(=O)Nc1ccccc1Cl)CC(=O)c1c(N)n(Cc2ccccc2)c(=O)n(C)c1=O	0.1%	nt	?	nt	-2.8	0.7%	2%
CN(C)C(=S)NC(=O)c1cccc(Cl)c1	-0.6%	-0.4	8%[15.4 µM]	-13%	-2.1	-1.0%	-10%
COc1ccc(N2CCN(C(=O)CCN3C(=O)c4ccccc4S3(=O)=O)CC2)cc1	0.9%	7.1	-54%[inhibitor]	18%	0.9	-3.5%	0%
COc1ccc(C(CC(=O)N2CCN(C)CC2)NC(=O)C(F)(F)F)cc1 (stereo unspecified)	1.2%	-1.3	?	17%	0.3	1.4%	12%
COc1cc2oc3cc(C)oc(=O)c3c2cc1OC	4.2%	4.8	?	5%	3.0	1.1%	-1%
O=c1c(/C=N/N2CCOCC2)c(C(F)(F)F)[nH]n1-c1ccccc1	-0.5%	4.3	4%	-9%	-2.1	1.3%	-6%
O=C(COC(=O)c1cc(S(=O)(=O)N2CCOCC2)ccc1O)NCc1ccc2c(c1)OCO2	-18%	nt	15%	nt	-5.1	-1.2%	-17%
COCCn1c(=N)c(S(=O)(=O)c2ccc(Br)cc2)cc2c(=O)n3ccccc3nc21	-17%	nt	17%	-11%	-4.1	0.3%	11%
COCCCC1CCN(C(=O)C2CCC(=O)N(C3CCCC3)C2)CC1 (stereo unspecified)	-2.5%	nt	12%[15.4 µM]	8%	-1.6	-1.2%	2%
Brc1ccc(-c2cnc3n2CCCC3)cc1	-1.6%	6.0	?	7%	-2.1	-2.3%	4%
CCc1cccc(CC)c1NC(=O)CN1CC(C)SC1=NC1CCCCC1 (stereo unspecified)	-0.8%	3.9	-11%	-10%	-0.9	0.6%	5%
CS(=O)(=O)c1nc(S(=O)(=O)c2ccc(Cl)cc2)c(NCCN2CCOCC2)s1	0.2%	nt	12%	10%	0.9	-0.1%	5%
COc1ccc(/C=N/NC(=O)c2nc(-c3ccccc3)n(-c3ccccc3)n2)c(O)c1	-22%	nt	0%	4%	-1.1	-1.0%	-14%
CCOC(=O)NC(=S)Nc1ccc(C(C)(C)C)cc1	nt	1.6	-1%[15.4 µM]	7%	-19	9.0%	-12%
CCCC[C@@H]1C[C@H]1[C@@H](NC(=O)c1cccs1)c1ccc(C(F)(F)F)cc1	-1.8%	nt	-7%	nt	-1.2	4.9%	-2%
CCCCNC(=O)c1ccc(C)c(NC(=O)C2=C(C)OCCS2)c1	1.0%	-1.2	-24%	22%	-3.3	-0.7%	-6%
COCCCNC(=O)Cn1cc2c(n1)CCCCC2	-1.2%	2.6	3%	16%	-2.2	1.1%	11%
S=c1nc(-c2ccccc2)n(Cc2cccnc2)c2c1CCCC2	nt	1.7	?	-3%	-3.4	1.8%	7%
CCC(=O)N1CCc2cc(S(=O)(=O)N3CCN(c4ccccn4)CC3)ccc21	?	2.6	16%	3%	-2.2	-1.1%	-13%
COc1cc(CNCCN2CCOCC2)ccc1OCc1cccc(Cl)c1	-1.3%	0.3	19%	6%	-1.1	0.2%	-1%
Oc1c(Cl)cc(Cl)cc1C1Nc2ccccc2-n2cccc21 (stereo unspecified)	nt	0.4	2%[15.4 µM]	-7%	-1.5	3.5%	10%
Cc1ccc(S(=O)(=O)Nc2ccccc2N2CCOCC2)cc1	-1.9%	nt	?	16%	-4.8	3.9%	9%
CN1C(=O)c2ccccc2N(C)C1c1ccccc1Cl (stereo unspecified)	1.3%	7.5	7%[15.4 µM]	-4%	-3.9	3.0%	1%
O=C(OC1CCOC1=O)c1ccc(-c2nc3ccccc3s2)s1 (stereo unspecified)	18µM*	-0.2	0%	4%	-1.3	-0.8%	-11%
CC(C)(C)C(=O)NC1CCN(CC(=O)Nc2ccc3c(c2)OCO3)CC1	nt	2.6	11%	13%	-4.3	-2.2%	8%
COC(=O)c1ccc(Sc2nnnn2-c2ccccc2)c([N+](=O)[O-])c1	-4.2%	2.2	13%	-12%	7.4	-1.0%	4%
CN(C)C(=O)c1cccc(-c2cnc3c(NC=O)cc(-c4ccccc4F)cn23)c1	-22%	nt	nt	nt	9.6	0.0%	nt
